eIF4H FP inh – inhibitors of RNA binding by human eIF4H; Q15056; eIF4H fluorescence polarization binding assay; inhibition, % at 35 µM; 0.94% of 290,000 active;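 active = 50% or more with normal probe brightness, or confirmed in later tests; inconclusive = above 50% with abnormal brightness, or retests that disagree; inactive = below 50% or failed in later tests; about a fifth of its hits are not listed in these tables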;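 also: calls also rest on retests at 20 µM and on dose response follow-up; 0% = protein and probe with vehicle and 100% = probe without protein; strong numbers were not always called active; many hits fall short of the cut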
Yeast UUG start – modulators of start codon recognition fidelity in yeast; S. cerevisiae UUG-firefly luciferase reporter, luminescence/redox ratio; 0.13% of 350,000 active; activity score, % at 18.7 µM;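 active = replicate mean at a twofold rise or more, about +100% in these data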;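 also: firefly luciferase made from a UUG start codon reports start codon fidelity; reporter light over untreated wells divided by growth signal over untreated wells; some hits fall short of that in this replicate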
Rce1 inhib – yeast Ras-converting enzyme inhibition | yeast membranes, quenched prenylated peptide cleavage fluorescence | calls only | 0.27% of 290,000 active | AID 2563;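 active = fall in fluorescence gain of 50% or more versus controls, with final raw signal at or below 3038400; inconclusive = same 50% fall but final raw signal above 3038400; inactive = fall in fluorescence gain under 50%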;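 also: plate controls were neutral control wells for no effect and wells lacking membranes for full effect; tested at 10 µM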
Target sequence (Q03530 whole entry, looked up): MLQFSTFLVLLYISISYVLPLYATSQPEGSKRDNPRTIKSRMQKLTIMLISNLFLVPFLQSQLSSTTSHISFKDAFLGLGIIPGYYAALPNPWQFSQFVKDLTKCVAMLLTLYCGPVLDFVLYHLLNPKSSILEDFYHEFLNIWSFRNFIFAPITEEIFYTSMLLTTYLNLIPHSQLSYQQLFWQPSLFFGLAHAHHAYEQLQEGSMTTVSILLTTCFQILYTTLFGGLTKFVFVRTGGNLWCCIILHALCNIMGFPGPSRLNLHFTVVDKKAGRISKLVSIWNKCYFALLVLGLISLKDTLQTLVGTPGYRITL
Env fusion inh – HIV envelope-mediated fusion inhibition; HeLa-JRFL Env/CEM21 cell fusion, luciferase; inhibition, % at 12.3 µM; AID 651610; 1.1% of 360,000 active;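 active = mean replicate inhibition score of at least 50 and every replicate individually at or above 50; inconclusive = only one of the two criteria met; inactive = mean below 50 and not all replicates reaching 50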;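 also: 0% = plate neutral controls and 100% = maraviroc near 300 nM; one replicate is shown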
PABP polyA inh – PABP-poly(A) binding inhibition. PABP-poly(A) RNA binding, fluorescence polarization. inhibition, % at 35 µM. 1% of 290,000 active;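 active = 50% or more with normal probe brightness, or confirmed in later tests; inconclusive = above 50% with abnormal brightness, or retests that disagree; inactive = below 50% or failed in later tests; about a fifth of its hits are not listed in these tables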;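 also: calls also rest on retests at 20 µM and on dose response follow-up; controls were probe without protein and protein plus probe with vehicle; some compounds called inactive have numbers as strong as hits; many hits fall short of the cut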
CSC inhib – blocks cancer stem cells. cancer stem cell-like cells viability, luminescence. inhibition, % at 7.5 µM. 1.1% of 300,000 active. AID 2717;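 active = mean at 75% or more and at least half the replicates too; inconclusive = mean and replicates disagree; tested in HMLE shEcad cells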;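 also: 0% = median of negative and 100% = median of positive control wells; the first replicate is given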
MT1-MMP act inh – MT1-MMP (human) activation inhibition. P50281. HT1080 RFP-PRO-GFP cells, GFP/RFP ratio fluorescence, overnight; percent of plate control window, DMSO zero. GFP/RFP ratio change, % at 20 µM. 0.061% of 360,000 active;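 active = GFP/RFP ratio change of at least 30% with cell ATP level not reduced by more than half and red fluorescence within 50% of control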; also: strong numbers were not always called active
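Assay system: RFP-PRO-GFP reporter HT1080 cells; read-out basis: GFP/RFP fluorescence ratio; benchmarks: DMSO wells and RFP-L50D-GFP cells; doses: 20 µM single dose, 1% DMSO; schedule: overnight cell settling, then overnight compound exposure, 37 °C, 5% CO2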
eIF4H FP inh retest – further read-out of eIF4H FP inh, marked with its call; inhibition, %; compound at 20 µM; confirmation average;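 mean of two retest wells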
PABP polyA inh retest – further read-out of PABP polyA inh, marked with its call; inhibition, %; compound at 20 µM; confirmation repeats;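 mean of two retest wells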
MT1-MMP act inh RFP – further read-out of MT1-MMP act inh, marked with its call; RFP signal change, %; measured here: RFP expression control read;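 0 = vehicle wells; hits needed this value within 50% of zero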
* = called active by the depositor; i = inactive; ? = inconclusive; / = not tested or not shown.

SMILES | eIF4H FP inh | Yeast UUG start | Rce1 inhib | Env fusion inh | PABP polyA inh | CSC inhib | MT1-MMP act inh | MT1-MMP act inh RFP | others
Cc1cccc(C)c1NC(=S)NCCc1ccc(O)c(O)c1 | 11 | -25 | i | -8 | 16 | 16 | 7 | -8
Cn1cnnc1SCC(=O)Nc1cccc(C(=O)O)c1 | -6 | -12 | i | -19 | 7 | -12 | -5 | 1
O=C(OCC(=O)N1CCC(Cc2ccccc2)CC1)c1cc(Cl)ccc1O | / | -24 | i | -3 | / | -14 | -1 | -4
CCOc1cc(S(=O)(=O)n2ccnc2)ccc1Br | 2 | / | i | -7 | -5 | 2 | -4 | -2
CCOc1ccc(/C=N/NC(=O)c2ccc(CSc3nc4ccccc4[nH]3)cc2)cc1 | 1 | / | i | 13 | 3 | 35 | 3 | 6
O=C(NCCN1CCNCC1)c1ccccn1 | -1 | -12 | i | -140 | 17 | -13 | 5 | 6
CCOc1ccccc1CN1CCNC(=O)C1CC(=O)NCCc1ccccn1 (configuration not stated) | 14 | -19 | i | -13 | 10 | -5 | -1 | 1
Cc1ccc(C)c(N2C(=O)CC(Cc3ccc(Br)cc3)C2=O)c1 (configuration not stated) | -5 | -7 | i | 13 | 3 | 1 | 2 | -2
OCCNc1nc(N2CCOCC2)nc(N2CCOCC2)n1 | -2 | -15 | i | 2 | -1 | 0 | 0 | 7
COC(=O)c1ccc(C)c(NC(=O)CN(c2ccc3c(c2)OCO3)S(C)(=O)=O)c1 | -5 | -15 | i | / | 1 | -14 | -2 | 0
CCc1nc2ccc(Cc3ccc4nc(CC)[nH]c4c3)cc2[nH]1 | -4 | -11 | i | -14 | 2 | 0 | 2 | -12
Cc1ccc(NS(=O)(=O)Cc2ccccc2)cc1Cl | 4 | -7 | i | 4 | -12 | 5 | -1 | -7
CCOC(=O)CN1C(=O)N[C@@H](c2cccs2)C(C(=O)OC)=C1C | / | 1 | i | -7 | / | 10 | -4 | 0
O=C(CNC(=O)[C@@H]1Cc2ccccc2CN1)Nc1ccc2c(c1)OCCO2 | -9 | -16 | i | -7 | -3 | -4 | 0 | 3
COc1ccccc1C(=O)NC(=O)CSc1nnc(N)s1 | / | -23 | / | / | / | -1 | -1 | 2
CCC(C(=O)Nc1cccnc1)n1c(=O)[nH]c2ccccc2c1=O (configuration not stated) | -1 | -5 | i | 3 | 4 | -12 | -3 | 2
CCN(CC)S(=O)(=O)c1nnc(NC(=O)c2ccco2)s1 | 4 | -24 | i | -1 | -3 | -15 | 3 | 4
Cc1cccc(C)c1NC(=O)c1csc([C@@H]2O[C@H](CO)[C@H](O)[C@H](O)[C@H]2O)n1 | / | -37 | / | 5 | / | / | 0 | 5
CNC(=O)NC(=O)CSc1nnc(-c2ccco2)n1-c1ccccc1 | 2 | -2 | i | -36 | 5 | / | 0 | 0
CC(=O)Nc1ccc(NC(=O)Nc2cccc3ccccc23)cc1 | 1 | -21 | i | 5 | -4 | -11 | 6 | 5
c1ccc2c(c1)nnn2Cc1nnc2sc(-c3ccncc3)nn12 | -2 | -12 | i | 17 | 0 | -15 | -8 | -3
Cc1cccc(OCCC(=O)N(C)CC(=O)Nc2cccc3ccccc23)c1 | -6 | -5 | i | 9 | 18 | -9 | 2 | -2
Fc1ccc(-c2cc(C(F)(F)C(F)F)[nH]n2)cc1 | -5 | -2 | i | 5 | -16 | 8 | -5 | -12
N#Cc1nc2ccccc2n1OCc1ccccc1 | / | -9 | / | -1 | / | / | 6 | -1
O=C(N/C(=C\c1ccc(Cl)cc1)C(=O)N1CCOCC1)c1ccco1 | 4 | -8 | i | 2 | 1 | / | -2 | -1
CC1CCCCN1S(=O)(=O)c1ccc(NC(=O)CSc2nnnn2C)cc1 (configuration not stated) | -7 | -14 | i | 1 | 1 | -3 | 0 | 1
O=C(CCNS(=O)(=O)c1ccc(OC(F)(F)F)cc1)N1CCN(C/C=C/c2ccccc2)CC1 | -4 | 0 | i | 33 | -2 | 1 | 1 | -15
O=C(N1CCN(c2ccccc2)CC1)C1(c2cccs2)CCOCC1 | 1 | / | i | / | -1 | 18 | 2 | -3
CN(C)c1ccc(NC(=O)CSc2nnc(-c3ccco3)c(-c3ccco3)n2)cc1 | 93* | 7 | i | -9 | 44* | 25 | -3 | 2 | eIF4H FP inh retest=100*;PABP polyA inh retest=83*
CN(C)CCCN(C(=O)c1ccc(Br)s1)c1nc2cc3c(cc2s1)OCO3 | 1 | 8 | i | 5 | 4 | -16 | 1 | -1

A draw from above in order of length of the SMILES, falling.
SMILES | eIF4H FP inh | Yeast UUG start | Rce1 inhib | Env fusion inh | PABP polyA inh | CSC inhib | MT1-MMP act inh | MT1-MMP act inh RFP | others
Cc1cccc(C)c1NC(=O)c1csc([C@@H]2O[C@H](CO)[C@H](O)[C@H](O)[C@H]2O)n1 | / | -37 | / | 5 | / | / | 0 | 5
CNC(=O)NC(=O)CSc1nnc(-c2ccco2)n1-c1ccccc1 | 2 | -2 | i | -36 | 5 | / | 0 | 0
CC(=O)Nc1ccc(NC(=O)Nc2cccc3ccccc23)cc1 | 1 | -21 | i | 5 | -4 | -11 | 6 | 5

Carrying on.
SMILES | eIF4H FP inh | Yeast UUG start | Rce1 inhib | Env fusion inh | PABP polyA inh | CSC inhib | MT1-MMP act inh | MT1-MMP act inh RFP | others
O=C(O)CCCCCNS(=O)(=O)c1ccc2c3c(cccc13)C(=O)N2 | 38 | 3 | i | -34 | 34 | / | -2 | 2
Cc1nc2sccn2c(=O)c1S(=O)(=O)NCc1ccccc1Cl | -5 | -9 | i | 4 | -11 | 2 | -4 | 2
O=C(O)C1Cc2ccccc2-c2ccccc2C1 | -7 | 8 | i | 9 | -14 | 8 | -5 | 3
COc1ccc2[nH]c3c(c2c1)CCN1C(=O)C(CC(=O)NCCCn2ccnc2)C[C@H](C(=O)N(C(C)C)C(C)C)[C@@]31C (some centres not stated) | / | -16 | / | ? | / | / | 0 | 5
CCCCNC(=O)CN(c1cccc(Br)c1)S(C)(=O)=O | 4 | -14 | i | / | 2 | 2 | 3 | 4
COc1cccc(OC)c1OCCCCN1CCC(Cc2ccccc2)CC1 | 13 | / | i | -1 | 2 | 56 | 2 | -3
CC1CCCCC12NC(=O)N(CC(=O)NCc1ccccc1Cl)C2=O (configuration not stated) | / | -5 | / | -27 | / | -5 | 2 | 1
C#CCOCCOCCOCCNc1nc(N2CCN(C(=O)[C@H](Cc3ccc(O)cc3)n3cc([C@@H](N)CC(C)C)nn3)CC2)nc(N2CCN(C(=O)[C@H](Cc3ccc(O)cc3)n3cc([C@@H](N)CC(C)C)nn3)CC2)n1 | 10 | / | i | / | ? | 3 | / | /
Cn1nc(N)c2c(-c3ccccc3)c(C#N)c(N)nc21 | -7 | / | i | 2 | 4 | -17 | -2 | 0
CNC(=O)c1ccsc1NC(=O)CS(=O)(=O)c1ccc(Cl)cc1 | / | -9 | i | -8 | / | 9 | 4 | -4
CC1CCCC(C)N1S(=O)(=O)c1ccc(S(=O)(=O)N2CCOCC2)cc1 (configuration not stated) | -6 | / | i | -8 | -1 | -2 | 1 | 0
Cc1onc(-c2ccccc2)c1C(=O)OCC(=O)Nc1ccccc1Cl | / | -13 | / | 13 | / | / | -4 | -4
COc1cccc(NC(=O)COC(=O)c2c(F)cccc2Cl)c1 | -2 | / | / | -33 | 7 | 1 | -1 | 3
O=C(c1cc(-c2ccc(F)cc2)on1)N1CCN(c2ccc(F)cc2)CC1 | -14 | -3 | i | 1 | 0 | 33 | 4 | 4
O=C(Nc1nnc(CCc2ccccc2)s1)c1ccccc1 | -12 | -4 | / | -21 | -7 | 10 | 4 | 0

Molecules from the list above that contain two or more sulfur atoms (7):
SMILES | eIF4H FP inh | Yeast UUG start | Rce1 inhib | Env fusion inh | PABP polyA inh | CSC inhib | MT1-MMP act inh | MT1-MMP act inh RFP | others
COc1ccccc1C(=O)NC(=O)CSc1nnc(N)s1 | / | -23 | / | / | / | -1 | -1 | 2
CCN(CC)S(=O)(=O)c1nnc(NC(=O)c2ccco2)s1 | 4 | -24 | i | -1 | -3 | -15 | 3 | 4
CC1CCCCN1S(=O)(=O)c1ccc(NC(=O)CSc2nnnn2C)cc1 (configuration not stated) | -7 | -14 | i | 1 | 1 | -3 | 0 | 1
CN(C)CCCN(C(=O)c1ccc(Br)s1)c1nc2cc3c(cc2s1)OCO3 | 1 | 8 | i | 5 | 4 | -16 | 1 | -1
Cc1nc2sccn2c(=O)c1S(=O)(=O)NCc1ccccc1Cl | -5 | -9 | i | 4 | -11 | 2 | -4 | 2
CNC(=O)c1ccsc1NC(=O)CS(=O)(=O)c1ccc(Cl)cc1 | / | -9 | i | -8 | / | 9 | 4 | -4
CC1CCCC(C)N1S(=O)(=O)c1ccc(S(=O)(=O)N2CCOCC2)cc1 (configuration not stated) | -6 | / | i | -8 | -1 | -2 | 1 | 0

New compounds follow
SMILES | eIF4H FP inh | Yeast UUG start | Rce1 inhib | Env fusion inh | PABP polyA inh | CSC inhib | MT1-MMP act inh | MT1-MMP act inh RFP | others
Cc1nc2ccccn2c1P(=O)(N1CCCCC1)N1CCCCC1 | -7 | 10 | i | / | -13 | -11 | 4 | 2
O=C(CSc1nc2cc([N+](=O)[O-])ccc2n1-c1ccc(F)cc1)NC1CCS(=O)(=O)C1 (configuration not stated) | -10 | -14 | i | -5 | -1 | 1 | -4 | -3
Cc1cc(C(=O)COC(=O)c2ccc[nH]c2=O)c(C)n1C | 67 | -13 | i | / | 0 | -7 | 4 | 5 | eIF4H FP inh retest=-12;PABP polyA inh retest=11
COc1cccc(NC(=O)N2CCC(NC(=O)C3CCCCC3)CC2)c1 | 0 | -13 | i | 17 | -6 | -4 | 5 | 8
COc1ccc(OC)c(C2C(C(=O)O)c3ccccc3C(=O)N2C)c1 (configuration not stated) | -6 | -1 | i | -31 | 0 | 3 | 3 | 2
CC(C)c1ccc(C2C(C(=O)c3ccco3)=C(O)C(=O)N2CCN2CCOCC2)cc1 (configuration not stated) | -3 | -18 | i | -5 | 10 | -3 | -5 | -1
COc1cccc(NC(=O)C2CCN(S(=O)(=O)c3ccc4c(c3)NC(=O)CO4)CC2)c1 | -12 | -6 | i | 8 | 8 | / | 0 | -2
O=C1COc2ccc(N3C(=O)c4ccccc4C3=O)cc2N1 | -1 | / | i | / | 12 | / | / | /
Cc1cc2ncn(-c3ncnc4scc(-c5ccccc5)c34)c2cc1C | -4 | -18 | i | ? | 7 | 0 | -8 | -6
O=C(CS(=O)CC(=O)N(c1ccccc1)C(C(=O)NC1CCCCC1)c1ccco1)Nc1ccc(F)cc1 (configuration not stated) | 14 | -11 | i | 26 | -4 | -1 | -4 | 0
O=C(N/N=C/c1ccc([N+](=O)[O-])o1)C1CCCC1 | 23 | 8 | i | -26 | 14 | 12 | -7 | -9
O=C(NCC1CCCO1)c1cc2n(n1)C(C(F)(F)F)CC(c1ccc(Br)cc1)N2 (configuration not stated) | 27 | -7 | / | 4 | -6 | 1 | -4 | 2
COC(=O)c1ccc(C(=O)Nc2ccc3nc(-c4ccncc4)[nH]c3c2)cc1 | -21 | -3 | i | 16 | -36 | / | 5 | 3
COCc1c(Br)c(C)nc(OCC(=O)N/N=C/c2ccco2)c1C#N | 20 | / | i | -48 | -21 | -2 | 4 | 1
CC1=C(C(=O)N(C)C)CC(CC(=O)NC(c2ccccc2)c2ccccc2)C(=O)N1CCCN1CCCC1=O (configuration not stated) | / | 4 | / | 25 | / | / | 3 | 2

High-throughput results: PubChem, several laboratories

An excerpt; rates above refer to the full screens.
